# Mtb bLac sens = beta-lactam sensitization of Mtb H37Rv, H37Rv; M. tuberculosis H37Rv growth with meropenem, percent inhibition; hits of this screen are not shown here; inhibition, % at 25 µM; 330,000 tested, 0.27% active;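 active = about 74% or more and at least 40 points above the plate without the antibiotic, then above 30% in a dose series; inconclusive = first-round hits that could not be retested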;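 note: growth measured after seven days incubation then overnight dye step; 0% = bacteria only wells and 100% = bacteria with antibiotic; twin plates without the antibiotic show which effects depend on it; some results filed as inactive read as strong as hits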
# YopH PTP inh = YopH tyrosine phosphatase inhibitors, primary screen, biochemical, fluorescence Ex485/Em525. inhibition, %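 (about 10 µM by stock and volumes)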. YopH tyrosine phosphatase [Yersinia enterocolitica]. 140,000 tested, 0.16% active. AID 898, 2007;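 active = inhibition of 50% or more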;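 note: controls were vehicle for no effect and minimum signal wells for full effect; inactives centre near -20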
# Mtb H37Rv = M. tuberculosis H37Rv growth inhibitors, H37Rv strain (AID 1626); 220,000 tested, 0.95% active; inhibition, % at 10 µM, or IC50 in µM where a hit was titrated; M. tuberculosis H37Rv growth inhibition; higher % means a stronger effect;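 active = confirmed in a dose series; inconclusive = inhibition above 80% but not taken into the dose series; inactive = below 80% or under 30% at every dose of the series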;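 note: bacteria incubated seven days before Alamar blue readout; 0% = bacteria only wells and 100% = bacteria with antibiotic wells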
# Arbovirus anti = antivirals against arbovirus infection, primary screen, cell-based, full library, 10K replicate subset. AID 1251, 2008. arbovirus infection cell-based antiviral screen. 200,000 tested, 0.37% active. inhibition, % at 10 µM;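 active = inhibition from about 30%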;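 note: bluetongue infection of BSR cells; cell survival read as ATP light after 72 h; 0% = infected wells without compound and 100% = uninfected wells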
# RecA splice inh = Mtb RecA intein splicing inhibitors, primary screen, biochemical, fluorescence, HTS. 290,000 tested, 0.75% active. Protein RecA (Mycobacterium tuberculosis (strain ATCC 25618 / H37Rv)), P9WHJ3. cell-free RecA intein splicing. inhibition, %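 (about 9 µM by stock and volumes)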. AID 2221, 2009; in the data active = inhibition above about 30%; inconclusive = no clear call, values can overlap the other calls;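 note: 0% = vehicle wells and 100% = reference inhibitor control wells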
# Target sequence (P9WHJ3 whole entry, looked up, canonical isoform): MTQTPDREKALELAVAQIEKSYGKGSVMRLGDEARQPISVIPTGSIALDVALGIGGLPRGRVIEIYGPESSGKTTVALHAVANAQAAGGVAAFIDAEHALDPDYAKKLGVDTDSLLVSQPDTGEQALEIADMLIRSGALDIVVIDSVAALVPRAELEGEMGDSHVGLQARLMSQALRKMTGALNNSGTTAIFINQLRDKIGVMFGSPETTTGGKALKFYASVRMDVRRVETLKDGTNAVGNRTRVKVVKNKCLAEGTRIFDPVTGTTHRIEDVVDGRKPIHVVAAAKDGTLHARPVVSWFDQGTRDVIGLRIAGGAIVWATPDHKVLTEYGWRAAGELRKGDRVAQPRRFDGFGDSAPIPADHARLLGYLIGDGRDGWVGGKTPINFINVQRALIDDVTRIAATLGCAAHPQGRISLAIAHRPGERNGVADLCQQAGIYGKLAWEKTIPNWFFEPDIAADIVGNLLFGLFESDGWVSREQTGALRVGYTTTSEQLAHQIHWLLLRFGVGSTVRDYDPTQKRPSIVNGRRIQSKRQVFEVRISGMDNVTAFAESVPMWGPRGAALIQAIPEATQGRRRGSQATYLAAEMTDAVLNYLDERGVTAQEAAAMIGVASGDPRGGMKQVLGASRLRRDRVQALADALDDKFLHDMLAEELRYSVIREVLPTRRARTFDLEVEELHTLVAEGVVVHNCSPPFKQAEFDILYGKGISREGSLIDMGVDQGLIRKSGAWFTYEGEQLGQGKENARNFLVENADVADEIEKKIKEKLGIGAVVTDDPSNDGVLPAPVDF
# Arbovirus anti repeat = recorded beside Arbovirus anti, whose call it bears; inhibition, %; measured here: 10K subset replicate screen; many hits read low in the repeat;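 first of two repeat runs on a subset; 0% = infected and 100% = uninfected wells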
# * hit, by the source's call; ? = inconclusive; nt = no result given. Not all compounds are listed. The share of hits here may be higher or lower than overall.
SMILES,Mtb bLac sens,YopH PTP inh,Mtb H37Rv,Arbovirus anti,RecA splice inh,others
CCC(Cc1ccccc1)NS(=O)(=O)c1c(C)nc2scc(C)n2c1=O (configuration not stated),3,nt,nt,nt,-2.7,
COC(=O)c1c(C)[nH]c(C(=O)C(Cc2ccccc2)N(C)C)c1C (configuration not stated),0,-6,-1%,1,1.1,
C=CCc1cc(C)ccc1OCC(O)CN1CCN(c2ccccc2)CC1 (configuration not stated),27,-29,11%,14,2.9,
CCCSc1nsc(SCCC)c1C(N)=O,-3,0,4%,6,-1.7,
CNCCCc1ccccc1,3,-103,-6%,-1,-1.9,
Cc1ccccc1N(Cc1cc(=O)[nH]c2ccccc12)C(=O)CCl,?,nt,nt,nt,48*,
Cc1ccccc1Cn1c(CN2CCN(C(=O)c3ccco3)CC2)nc2c1c(=O)n(C)c(=O)n2C,1,-10,7%,-4,2.7,Arbovirus anti repeat=-3
CCC(=O)N(NC1=NS(=O)(=O)c2ccccc21)S(=O)(=O)c1ccc(C)cc1,1,nt,-2%,8,-3.0,
Cc1cccc(Nc2nc(N)c([N+](=O)[O-])c(N3CC(C)OC(C)C3)n2)c1 (configuration not stated),7,nt,nt,nt,3.3,
O=C(CSc1nc(-c2ccccc2)c(-c2ccccc2)[nH]1)NCCN1C(=O)CSC1=O,-11,-8,-6%,-14,1.1,
CCc1nc2ccccc2n1CCC(C)C,-8,-27,-12%,9,-1.1,
COc1ccc(Nc2nc(N)nc(CSC(=S)N3CCOCC3)n2)cc1,8,nt,8%,-6,2.6,
OCC1(CCOc2ccccc2)CCN(Cc2ccccc2C(F)(F)F)CC1,-1,nt,nt,nt,-0.9,
CCNC(=S)NS(=O)(=O)c1ccc(CC)cc1,-6,-35,-2%,3,-0.5,
COC(=O)c1ccc(NC(=S)NCC2CC2)cc1,-2,nt,1%,2,2.4,
c1ccc(N2CCN(c3nc4ccccc4n4nnnc34)CC2)cc1,6,-48,3%,-5,3.5,
Cc1ccc(NC(=O)C2C3C=CC4(CN(Cc5cccnc5)C(=O)C24)O3)cc1 (configuration not stated),0,-32,-14%,9,-1.0,Arbovirus anti repeat=3
Cc1cc(Nc2nc3c(c(=O)n(C)c(=O)n3C)n2C)n(-c2ccc(Cl)cc2)n1,10,-49,-6%,8,2.5,Arbovirus anti repeat=-5
COc1ccc(CCN2CC(C(=O)N(C)Cc3ccc(C)o3)CCC2=O)cc1 (configuration not stated),6,nt,nt,nt,0.0,
CNc1nc(-c2ccccc2)nnc1C(F)(F)F,-1,-17,-3%,-5,0.9,
O=C(NNS(=O)(=O)c1ccccc1)C1CCN(S(=O)(=O)c2ccc(Cl)cc2)CC1,10,-21,-5%,4,-1.1,
O=C(CNc1cc(S(=O)(=O)N2CCCC2)ccc1OCC(F)(F)F)Nc1cccc(C(F)(F)F)c1,-2,-9,6%,-17,-4.1,
O=C(COc1ccccc1)Nc1cc(Cl)ccc1Cl,2,nt,nt,nt,2.6,
CCOC(=O)c1c(N)sc2c(O)c(Br)ccc12,16,-46,6%,-1,-2.0,Arbovirus anti repeat=9
O=C1c2cccc3c([N+](=O)[O-])ccc(c23)C(=O)N1c1nccs1,93,-10,-2%,-38,-9.7,
Cc1ccc(C(=O)C(C)Oc2ccc3ccc(=O)oc3c2)cc1 (configuration not stated),?,nt,nt,nt,1.9,
CC(=O)Nc1ccc(C(=O)N2CCCc3ccccc32)cc1,-6,nt,nt,nt,-1.9,
Cc1ccc(S(=O)(=O)c2nnn3c2nc(N2CCCCC2)c2ccccc23)cc1,-5,-19,-1%,0,-1.4,
O=C(CN1CCN(C(=O)c2ccccc2F)CC1)Nc1ccc(Br)cc1,1,-39,2%,-2,1.5,
Cc1[nH]c(-c2ccc(F)cc2)cc1C(=O)N1CCN(c2ccccc2)CC1,25,nt,nt,nt,0.7,
CCOc1ccccc1N(CC(=O)Nc1c(C)n(C)n(-c2ccccc2)c1=O)S(=O)(=O)c1ccccc1,-2,nt,-1%,5,-0.2,
Cc1cccc(-n2ncc3c(NCCc4ccc(S(N)(=O)=O)cc4)ncnc32)c1,-1,nt,10%,-4,-3.7,Arbovirus anti repeat=-3
COc1cc(C(=O)NCc2nnc(SCC(=O)Nc3nc4ccc(C)cc4s3)o2)cc(OC)c1OC,7,-31,11%,-17,-7.3,
O=C(CCC(=O)c1ccc(F)cc1)Nc1cccc(S(=O)(=O)Nc2cccc(Cl)c2)c1,9,-16,13%,4,4.0,
Cc1ccc([N+](=O)[O-])cc1S(=O)(=O)N(C(=O)c1ccncc1)c1ccc2oc3c(c2c1)CCCC3,1,-14,2%,-27,43*,
COC(=O)c1sccc1NC(=O)Nc1cccc([N+](=O)[O-])c1,5,nt,nt,nt,1.2,
C/C=C/c1ccc(OCC(O)CN2CCCCCCC2)c(OC)c1 (configuration not stated),-12,nt,-1%,-15,2.1,
COc1cccc2sc(Nc3nc4ccc(NC(C)=O)cc4s3)nc12,11,-10,15%,2,-19,
CC(=O)Oc1ccc(/C=C2\N=C(C3CCCCC3)OC2=O)cc1,8,nt,5%,-7,-0.4,
CCN1CCc2nc3ccccc3c(C(=O)Nc3ccc(C#N)cc3)c2C1,-3,nt,0%,5,-0.1,
Cc1csc(=O)n1CCC(=O)OCC(=O)Nc1ccc(Cl)cn1,-12,nt,nt,nt,-1.8,
O=C(Oc1cccc(Cl)c1)N1CCOCC1,6,nt,nt,nt,-1.8,
CCOC(=O)Cc1csc(NC(=S)NC(=O)c2cc(OC)c(OC)c(OC)c2)n1,4,nt,-7%,nt,-2.7,
CCCOc1ccc(Br)cc1CSC(=N)N,2,-23,-1%,-27,nt,
CCOc1ccc(C(C)=O)cc1COC(=O)c1cc([N+](=O)[O-])ccc1N1CCOCC1,-9,nt,nt,nt,0.1,
O=C(CSc1nc(O)c(C2CCCCC2)c(=O)[nH]1)NCC1CCCO1 (configuration not stated),3,-37,-8%,2,-1.1,
Cc1cccc(N(CC(=O)NCc2ccc(F)cc2)C(=O)c2csnn2)c1C,1,nt,1%,6,1.1,
CCOc1ccc(C(=O)NCC2CCCO2)cc1 (configuration not stated),-3,15,2%,4,0.0,
COc1cccc(/C=N/NC(=O)CNC(=O)c2ccc(S(=O)(=O)N3CCCC3)cc2)c1OC,0,nt,-1%,18,-1.6,
CCn1c(=NC(=O)CS(=O)(=O)c2ccc(C)cc2)sc2cccc(OC)c21,-4,nt,nt,nt,9.1,

# The listing continues.
SMILES,Mtb bLac sens,YopH PTP inh,Mtb H37Rv,Arbovirus anti,RecA splice inh,others
CC(=O)Nc1cccc(NC(=O)Nc2ccc(F)cc2F)c1,0,nt,3%,-8,-1.7,
Cc1nnc(NC(=O)CSc2nnc(CCc3nc4ccccc4[nH]3)n2C)s1,-11,-52,-8%,-4,0.1,
O=C1CCC(C(=O)N2CCSCC2)CN1CCc1ccccc1 (configuration not stated),9,nt,nt,nt,-0.4,
CCNC(=O)CC1C(=O)N(c2ccc(OC)cc2)C(=O)N1Cc1ccc(OC)cc1 (configuration not stated),-11,-13,-9%,4,2.0,
CC1(C)C2CCC1(C)C(Nc1ccccc1)C2 (configuration not stated),-7,nt,4%,nt,-0.7,
O=C(c1ccco1)c1coc2c1cc(O)c1ccccc12,0,nt,-6%,-14,45*,
CC1C(=O)N2CCCc3cc(NC(=O)C4CC4)cc1c32 (configuration not stated),2,nt,nt,nt,0.8,
CCOC(=O)NNC(=O)NCCCCCCNC(=O)NNC(=O)OCC,2,nt,-6%,nt,0.0,
CCOc1ccc(C2CC(=O)NC2=O)cc1 (configuration not stated),5,nt,nt,nt,0.7,
O=C(CCSc1nc(-c2ccc3c(c2)OCO3)cc(C(F)(F)F)n1)NCc1ccco1,-3,-42,-6%,-6,-0.8,Arbovirus anti repeat=-15
CNC(=S)NNC(=O)c1oc2nc(-c3ccccc3)cc(-c3ccco3)c2c1N,-8,nt,4%,nt,1.7,
Cc1sc2nc(CSc3ccccc3)nc(N3CCC(C(N)=O)CC3)c2c1C,10,nt,9%,-9,nt,
COCCN(Cc1ccccc1)C(=O)c1cccc(S(=O)(=O)N2CCN(c3ccc(F)cc3)CC2)c1,-5,nt,nt,nt,7.8,
CC(C)N1C(=O)S/C(=C/c2ccccc2OCc2ccc(C(=O)O)cc2)C1=O,5,nt,-1%,26,6.5,
COc1cccc(/C=C/C(=O)NCc2cn3cc(Cl)ccc3n2)c1,-5,nt,6%,-2,1.8,
CCN1C(=O)C(CC(=O)NC2CCCCC2)N(CC)C1=O (configuration not stated),0,-14,-7%,-1,-0.8,
O=c1[nH]c(CN2CCCC2)nc2sc3c(c12)CCC3,8,nt,5%,1,-1.0,
Cc1nn(-c2ccccc2)c2sc(C(=O)N(CC(=O)NC3CCCC3)Cc3ccco3)cc12,nt,-31,15%,-23,7.2,
C=CC[n+]1c(-c2ccc(OCC)cc2)csc1NNC(=O)Nc1ccccc1,36,-5,23%,2,2.8,
COc1ccc(NC(=O)C2c3cc(OC)c(OC)cc3C(=O)N(C)C2c2cccnc2)cc1OC (configuration not stated),0,-43,-6%,-3,1.7,Arbovirus anti repeat=5
S=C(NCC1CCCO1)Nc1cccc(Cl)c1 (configuration not stated),2,nt,2%,3,12,

# Gathered by group, the compounds so far with an aryl methoxy group
SMILES,Mtb bLac sens,YopH PTP inh,Mtb H37Rv,Arbovirus anti,RecA splice inh,others
COc1ccc(Nc2nc(N)nc(CSC(=S)N3CCOCC3)n2)cc1,8,nt,8%,-6,2.6,
COc1ccc(CCN2CC(C(=O)N(C)Cc3ccc(C)o3)CCC2=O)cc1 (configuration not stated),6,nt,nt,nt,0.0,
COc1cc(C(=O)NCc2nnc(SCC(=O)Nc3nc4ccc(C)cc4s3)o2)cc(OC)c1OC,7,-31,11%,-17,-7.3,
C/C=C/c1ccc(OCC(O)CN2CCCCCCC2)c(OC)c1 (configuration not stated),-12,nt,-1%,-15,2.1,
COc1cccc2sc(Nc3nc4ccc(NC(C)=O)cc4s3)nc12,11,-10,15%,2,-19,
CCOC(=O)Cc1csc(NC(=S)NC(=O)c2cc(OC)c(OC)c(OC)c2)n1,4,nt,-7%,nt,-2.7,
COc1cccc(/C=N/NC(=O)CNC(=O)c2ccc(S(=O)(=O)N3CCCC3)cc2)c1OC,0,nt,-1%,18,-1.6,
CCn1c(=NC(=O)CS(=O)(=O)c2ccc(C)cc2)sc2cccc(OC)c21,-4,nt,nt,nt,9.1,
CCNC(=O)CC1C(=O)N(c2ccc(OC)cc2)C(=O)N1Cc1ccc(OC)cc1 (configuration not stated),-11,-13,-9%,4,2.0,
COc1cccc(/C=C/C(=O)NCc2cn3cc(Cl)ccc3n2)c1,-5,nt,6%,-2,1.8,
COc1ccc(NC(=O)C2c3cc(OC)c(OC)cc3C(=O)N(C)C2c2cccnc2)cc1OC (configuration not stated),0,-43,-6%,-3,1.7,Arbovirus anti repeat=5

# Screening data as filed in PubChem BioAssay.
